# Bioassay records: PubChem, several laboratories
# VCAM-1 rise = enhancers of VCAM-1 display on endothelial cells, cell-based, plate reader, pooled HUVEC, TNFa stimulus (AID 455); HUVEC TNFa-induced VCAM-1 immunofluorescence, plate reader; numbers were filed only for top-ranked candidate wells; augmentation, % at 5 µM; 10,000 tested, 0.2% active;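 active = a compound raising TNF-alpha-driven VCAM-1 surface staining, with its hit status upheld on visual or statistical review; inactive = the rest, including hits rejected on review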;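 note: 0% = TNFa with vehicle and 100% = strongest image-checked hit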
# 26S disassembly = blocks ATP-dependent breakdown of the yeast 26S proteasome | anti-FLAG beads, GFP-proteasome disassembly, flow cytometry | inhibition of disassembly, % (no concentration beside the values) | 24,000 tested, 0.2% active | AID 751;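 active = above 40%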;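 note: plate controls were ATP control with full disassembly for no effect and ATP-gamma-S intact proteasomes for full effect; higher percent means more bead fluorescence retained so stronger block of disassembly; stock transfer was 100 nL into about 10 µL; wells with too few beads may also be inconclusive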
# * = called active by the depositor; i = inactive; nt = no result given. A portion of the library (hit frequency here may not be typical).
SMILES,VCAM-1 rise,26S disassembly
CC(=O)CC(C)=NCCN=C(C)CC(C)=O,nt,0.3
O=S(=O)(c1ccc(F)cc1)N1CCCC(CO)C1 (configuration not stated),nt,0.8
COc1ccc(S(=O)(=O)Cc2ccc(C(=O)N3CCN(c4ccc(Cl)cc4)CC3)o2)cc1,nt,-1.3
CC(C)CNc1oc(-c2ccc(F)cc2)nc1C#N,i,0.0
CN(C)c1nc(Oc2ccc(N)cc2)nc(N(C)C)n1,i,0.7
COc1ccc(-c2cc(C(F)(F)F)nc(N3CCN(Cc4ccccc4)CC3)n2)cc1OC,nt,0.8
Cc1ccc(CCC(=O)Nc2ccc(S(N)(=O)=O)cc2)o1,i,0.9
CCn1c2ccccc2c2cc(NC(=O)CSc3nnc(C4CC4)n3Cc3ccco3)ccc21,i,-0.1
COc1ccc(Nc2nc(N)nc(CN3CCC(Cc4ccccc4)CC3)n2)cc1,nt,0.6
CCc1nn(C(C)C(=O)NCCN2CCN(c3cccc(C)c3C)CC2)c(=O)c2cc3occc3n12 (configuration not stated),nt,3.1
Cc1ccc(S(=O)(=O)CC(=O)N2CCCCCC2)cc1,i,-0.8
O=C(Nc1ccncc1)C1c2ccccc2Oc2ccccc21,i,5.9
O=c1c[n+]([O-])c2ccccc2n1OCc1c(F)cccc1F,i,13
Cc1cc(C)c(NC(=O)CSc2nc3c(c(=O)n2C)SC(C)C3)c(C)c1 (configuration not stated),i,0.4
CCc1nnc(NC(=O)CSc2nnc(-c3c[nH]c4ccccc34)n2C)s1,nt,-3.5
O=C(c1ccccc1F)N1CCN=C1SCc1cccnc1,nt,-0.9
COc1ccc(F)cc1S(=O)(=O)NC1CC(C)(C)NC(C)(C)C1,nt,0.8
Cc1c2c(nc3nc4ccccc4n13)CC(C)(C)CC2=O,i,1.3
COc1ccc(OC)c(C2CC(=O)Nc3cc(OC)c(OC)c(OC)c32)c1 (configuration not stated),nt,0.1
COC(=O)CNc1c(-c2ccccn2)nc2ccc(Br)cn12,nt,1.3
COCCNC(=O)CCc1nc(-c2ccccc2)no1,i,2.1
COc1ccc(NC(=O)Cn2nnc(C(=O)NCc3cccc(OC)c3)c2N)cc1,nt,-0.5
Oc1c(CN2CCCCC2)cc(Br)c2cccnc12,nt,4.0
CCOc1ccc(C2CC(=O)c3c([nH]c(C(=O)OC)c3C)C2)cc1OC (configuration not stated),nt,1.6
Cc1cc(C(F)F)n2ncc(C(=O)NC3CCCCCC3)c2n1,i,-0.1
COc1cccc(C2CC(c3ccc(C(C)C)cc3)n3nc(N)nc3N2)c1 (configuration not stated),nt,0.2
CCCCNC(=O)c1nn(-c2ccccc2OC)c(=O)c2ccccc12,nt,0.2
Cc1ccc(-c2nnc(SCC(=O)N3c4ccccc4NC(=O)C3(C)C)n2N)cc1,i,-2.2
C#CCN1C(=O)C(O)(CC(=O)c2cc(OC)ccc2OC)c2ccccc21 (configuration not stated),i,-0.3
Cc1cc(NC(=O)CS(=O)(=O)c2cn(Cc3ccccc3Cl)c3ccccc23)no1,i,0.0
CC(=O)NCCc1ccc(S(=O)(=O)NCc2ccc3c(c2)OCO3)cc1,i,0.6
CCN(CC)CCCNC(=O)CC1Sc2ccccc2NC1=O (configuration not stated),nt,-0.3
COc1cc(NC(=O)c2ccccc2)c(OC)cc1NC(=O)CN1CCN(c2ccccn2)CC1,nt,-0.3
CCOC(=O)C1=C(CC)Nc2ccccc2N=C1NC(=O)Nc1ccccc1OC,i,-6.9
Cc1cccc(NC(=O)CN(C)S(=O)(=O)c2cnc[nH]2)c1,nt,0.0
CCOc1ccc(CC(=O)Nc2c(C(N)=O)oc3ccc(Br)cc23)cc1OCC,nt,1.1
CN1CCN(S(=O)(=O)c2ccc(NC(=O)Nc3cccc(Cl)c3)cc2)CC1,i,0.3
COCCN(CCOC)c1ncnc2c1cnn2-c1ccc(Cl)cc1,nt,0.5
COc1ccc(CCNC(=O)CC2Oc3ccc(Cl)cc3NC2=O)cc1OC (configuration not stated),nt,0.0
CC(=O)C1=C(C)NC(C)=C(C(C)=O)C1c1cccs1,i,-3.0
CCN(C(=O)c1cn(C)c(=O)c2cc(OC)c(OC)cc12)c1cc(OC)ccc1OC,nt,0.3
CCOc1ccccc1C(=O)N(CN1CCCC1=O)c1cccc(Cl)c1,nt,-1.6
CC1CCN(C(=S)c2ccccc2O)CC1,i,0.6
Cc1ccc(NC(=O)CC(NCCN2CCOCC2)C(=O)O)cc1Cl (configuration not stated),nt,1.4
COc1cccc(NC(=O)CN2C(=O)COc3ccc(Cl)cc32)c1,nt,0.8
CCCn1nc(CC(=O)O)c2ccccc2c1=O,i,-1.0
Cc1ccc(S(=O)(=O)NCCC(=O)NCCN2CCCCCC2)cc1,nt,1.9
Cc1ccc(C)c(C(=O)CSc2n[nH]c(-c3ccncc3)n2)c1,nt,0.8
C=CCn1c(SCC(=O)c2ccc(OC)cc2)nnc1C(C)NC(=O)c1cccs1 (configuration not stated),i,0.6
O=C(CN1C(=O)c2ccccc2S1(=O)=O)NCc1ccccn1,i,2.4
C(=N\n1cnnc1)/c1cccc(OCCOc2ccccc2)c1,i,2.1
CCCCCc1c(O)nc(SCC(=O)NCC2CCCO2)[nH]c1=O (configuration not stated),i,-0.5
Brc1cccc(-c2cnc3n2CCCCC3)c1,i,0.7
COCCCNC(=O)c1ccc2c(c1)OCO2,i,2.3
COc1ccc(CC(NC(C)=O)C(=O)N2CCN(C(=O)N(C(C)C)C(C)C)CC2)cc1 (configuration not stated),i,1.7
COc1ccc(NC(=O)CNS(=O)(=O)c2ccc3nc(C)sc3c2)c(OC)c1,nt,-1.8
COc1ccc(S(=O)(=O)NCc2ccc(C(=O)O)cc2)cc1,i,-0.6
O=C(Nc1nnc(-c2ccccc2Cl)o1)c1ccc(S(=O)(=O)N2CCCCCC2)cc1,nt,0.7
CCOC(=O)C1CCN(S(=O)(=O)c2ccc3c4c(cccc24)C(=O)N3)CC1,nt,-1.9
Cc1ccccc1CN1CCNC1=O,i,0.2
# New compounds follow:
SMILES,VCAM-1 rise,26S disassembly
COC(=O)C(C)Sc1nc2c(cnn2-c2ccc(C)cc2)c(=O)[nH]1 (configuration not stated),nt,-0.4
COc1ccc(CCNC(=O)c2cc(-c3ccc4c(c3)OCO4)on2)cc1OC,nt,-0.3
O=C(CSc1ccc2nnc(-c3ccc(F)cc3)n2n1)NCC1CCCO1 (configuration not stated),nt,-1.3
Cc1ccsc1C1C2=C(CC(C)(C)CC2=O)Nc2ncnn21 (configuration not stated),nt,-2.8
Cc1cc(C(=O)N(C2CCCCC2)C2CCCCC2)no1,nt,-2.8
CC12CC(NC(=O)N1c1cccc(C(=O)N3CCN(c4ccccc4F)CC3)c1)c1ccccc1O2 (configuration not stated),nt,1.5
CC(C)OC(=O)c1cccc(C(=O)O)n1,i,-0.1
C[N+](C)(C)CCCCCCCCCC[N+](C)(C)C,i,0.5
O=C(CCCCn1c(=O)[nH]c2ccccc2c1=O)NCc1ccc2c(c1)OCO2,nt,1.4
CCCNC(=O)N1CCN(S(=O)(=O)c2ccc(C)c(C)c2)CC1,i,-3.5
Cc1ccc2nc(C(F)(F)F)c(C#N)c(N)c2c1,i,0.1
O=C(/C=N/O)NCc1ccncc1,i,0.3
Cc1c(C)c2cc3c4c(oc3c(C)c2oc1=O)CCCC4,nt,-1.5
Cc1ccc(CCNC(=O)C2CCCN2S(=O)(=O)c2ccc3c(c2)CCC(=O)N3)cc1 (configuration not stated),i,2.7
O=C(CCS(=O)(=O)c1cccc2nonc12)N1CC(=O)N(CCc2ccccc2)C(=O)C1,nt,0.0
CCCOC(=O)c1[nH]c2c(c1C)C(=O)CC(c1cc(OC)c(OC)c(OC)c1)C2 (configuration not stated),i,1.3
CCn1cc(C(=O)Nc2ccc3c(c2)OCCO3)c2cc(OC)c(OC)cc2c1=O,nt,-1.1
Cc1cccc(-n2nc3c(c2NC(=O)c2ccco2)CSC3)c1C,nt,0.2
COc1ccc(C(=O)c2coc3ccc(O)c(CN(C)C)c23)cc1,nt,1.2
COc1ccccc1-c1cc(C(F)(F)F)nc(N2CCOCC2)n1,nt,0.5

# Entries of single compounds, looked up by structure.
# Entry for Cc1cc(C(=O)N(C2CCCCC2)C2CCCCC2)no1 : VCAM-1 rise: nt; 26S disassembly: -2.8
# Entry for COc1ccc(NC(=O)CNS(=O)(=O)c2ccc3nc(C)sc3c2)c(OC)c1 : VCAM-1 rise: nt; 26S disassembly: -1.8

# Among those listed so far, four contain two or more sulfur atoms.
SMILES,VCAM-1 rise,26S disassembly
Cc1cc(C)c(NC(=O)CSc2nc3c(c(=O)n2C)SC(C)C3)c(C)c1 (configuration not stated),i,0.4
CCc1nnc(NC(=O)CSc2nnc(-c3c[nH]c4ccccc34)n2C)s1,nt,-3.5
C=CCn1c(SCC(=O)c2ccc(OC)cc2)nnc1C(C)NC(=O)c1cccs1 (configuration not stated),i,0.6
COc1ccc(NC(=O)CNS(=O)(=O)c2ccc3nc(C)sc3c2)c(OC)c1,nt,-1.8

# More compounds follow.
SMILES,VCAM-1 rise,26S disassembly
CCOc1ccc(-c2c(C#N)c(N)nc3c2c(=O)n(C)c(=O)n3C)cc1OC,i,-0.3
COc1ccccc1NC(=O)NCCCN1CCN(c2cccc(Cl)c2)CC1,i,0.0
CCOC(=O)CCC(=O)Nc1ccc(S(=O)(=O)N2CCCC2)cc1,i,-1.3
O=C1CCc2cc(S(=O)(=O)N3CCC(C(=O)NC4CCCCCCC4)CC3)ccc2N1,nt,-1.6
CCC(C)N1CC(C(=O)NC2CCCCC2)CC1=O (configuration not stated),nt,0.9
CCOc1ccccc1N1Cc2cc(C)c(C)cc2C1,i,4.5
Cc1cc(NC(=O)CSc2c3c(nc4ccccc24)CCC3)no1,nt,-1.5
Cc1nc(CNS(=O)(=O)c2ccc3c(c2)OCCO3)cs1,i,-0.3
Cn1c(=O)oc2cc(S(=O)(=O)NCCN3CCN(c4ccccc4F)CC3)ccc21,nt,-3.0
COc1ccc(Cl)cc1NC(=O)Cn1c(=O)n2nc(C)nc2c2ccccc21,nt,0.3
Cn1ccnc1SCC(=O)c1ccc(Br)cc1,nt,-0.1
Cc1cc(Nc2ccc(C(=O)O)cc2)n2nc(C)nc2n1,i,-1.1
CC1CCC2C(C1)c1sc(=O)[nH]c1SC2(C)C (configuration not stated),i,0.0
O=C(Cc1ccc(-n2cccc2)cc1)N1CCN(c2ccccc2F)CC1,nt,2.8
CCCCC1(CC)C(=O)NC(=O)NC1=Nc1ccc(OC)cc1 (configuration not stated),nt,-0.8
COc1ccc(C(CC(=O)O)NC(=O)COc2ccccc2)cc1OC (configuration not stated),nt,-4.5
COc1ccc(-n2c(=O)cc(N3CCCCCC3)[nH]c2=O)cc1,nt,-3.3
Cc1cc(C)cc(-n2nnc(C(=O)NCc3ccco3)c2N)c1,i,-0.7
O=S(=O)(Nc1cccnc1)c1cc(Cl)ccc1Cl,i,-0.3
CCOC(=O)c1sc(=S)n(C)c1N,nt,-1.6
COc1ccc(C(=O)O)cc1Nc1cc(C)nc2ncnn12,nt,-0.2
O=S(=O)(Nc1nc2ccccc2nc1NCc1ccco1)c1ccc(Cl)cc1,i,0.0
CCOC(=O)N1CCC2(O)CCCCC2C1c1ccc(F)cc1 (configuration not stated),i,-0.1
Cc1cc(N2CCN(c3cccc(C(F)(F)F)c3)CC2)n2nc(C)nc2n1,nt,0.1
CNc1nnc(-c2cc3ccccc3oc2=O)s1,nt,2.6
O=C1CC(c2ccccc2)CC(O)=C1C=NCCN1CCOCC1 (configuration not stated),i,-0.1
N=c1c(C(=O)NC2CCCCC2)cc2c(=O)n3ccccc3nc2n1CCN1CCOCC1,nt,-3.5
COCCOC(=O)c1c(C)nc(SCC(=O)Nc2ccc(OC)cc2)c(C#N)c1-c1ccco1,i,0.3
CCOC(=O)N1CCN(C(=O)CS(=O)Cc2nc(-c3cccc(C)c3)oc2C)CC1 (configuration not stated),nt,-3.6
O=C(CCN1CCN(c2ccc(F)cc2)CC1)Nc1ccccc1F,i,1.0
CCOCCCNC(=O)c1c(C)c(C(=O)OCC)n(C)c1C,nt,1.5
CCc1ccc(NS(=O)(=O)c2ccc3[nH]cc(C(=O)NCC4CCCO4)c(=O)c3c2)cc1 (configuration not stated),nt,-0.4
O=S(=O)(NCC(c1cccnc1)N1CCOCC1)c1cccs1 (configuration not stated),nt,1.5
CCOC(=O)Cn1c2c(c(-c3ccccc3OC)cc1=O)CCCC2,nt,2.7
CCOC(=O)C1CCN(C(=O)CN(c2ccc(OC)cc2)S(=O)(=O)c2c(C)noc2C)CC1,nt,1.6
O=C(Nc1ccc(F)c(Cl)c1)c1ccc2c(=O)n3c(nc2c1)CCCCC3,nt,1.5
CCCCCc1nc2c(=O)n(C)c3ccccc3c2o1,nt,0.0
CCC(C)N(C)Cc1cccc(C2(O)CCN(S(=O)(=O)c3ccc(F)cc3)CC2)c1 (configuration not stated),nt,-0.7
O=C(CCCCn1c(=O)[nH]c2ccccc2c1=O)N1CCN(c2cccc(C(F)(F)F)c2)CC1,nt,3.0
Cn1c2ccccc2c2ncn(CCCN3CCOCC3)c(=O)c21,i,0.1
CC(C)c1ccc(NC(=O)C(c2ccc3c(c2)OCO3)N2CCN(C(=O)c3ccco3)CC2)cc1 (configuration not stated),nt,0.8
Cc1cc(C)c(C#N)c(SCc2ccc(C#N)cc2)n1,i,-4.3
Cc1cc(S(=O)(=O)N2CC(=O)N(CCc3ccccc3)C(=O)C2)ccc1F,nt,1.1
CCCOc1ccccc1C1CC(=O)NC2=C1C(=O)CCC2 (configuration not stated),nt,-1.9
COc1ccc(OC)c(C(=O)c2nc3c(n2O)CCCCC3)c1,i,0.9
